# Screening data as filed in PubChem BioAssay.
# VDR inhibitor – inhibitors of human vitamin D receptor; P11473; VDR-SRC2-3 peptide fluorescence polarization, 2 h; Potency, µM, inactives show max response, negative = inhibition, usual class: inhibitors; actives 0.93% (n = 400,000); AID 504847; active = well fitted inhibition curve with a large enough effect; inconclusive = small, poorly fitted or top-dose-only effect, or another doubt; inactive = no such curve, though single readings can be large or run the other way; also: series mostly up to about 120 µM
# Target sequence (P11473 whole entry, looked up): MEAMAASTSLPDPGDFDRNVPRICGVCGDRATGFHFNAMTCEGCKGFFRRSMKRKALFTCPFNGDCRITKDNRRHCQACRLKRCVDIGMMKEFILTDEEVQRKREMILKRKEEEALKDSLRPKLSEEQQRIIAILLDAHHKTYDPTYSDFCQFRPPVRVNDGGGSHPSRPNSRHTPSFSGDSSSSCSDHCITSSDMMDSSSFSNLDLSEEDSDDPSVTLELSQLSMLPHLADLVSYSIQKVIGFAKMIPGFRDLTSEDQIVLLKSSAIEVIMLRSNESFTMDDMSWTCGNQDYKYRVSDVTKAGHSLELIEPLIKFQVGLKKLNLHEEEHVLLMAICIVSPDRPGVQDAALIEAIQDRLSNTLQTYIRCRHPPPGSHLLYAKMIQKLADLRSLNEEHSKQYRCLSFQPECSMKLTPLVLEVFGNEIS
#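 Fluorescence polarization assay of small-molecule disruption of VDR binding to coregulator peptide SRC2-3. Compounds and controls pin-transferred, then read after 2 h incubation at ambient room temperature.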
# * = called active by the depositor; u = inconclusive; & = joins results of further samples; [ ] = dose if it differs, or a comment. % is scaled to controls: 0 for no effect and ±100 for the full control effect; potency is read from the fitted curve at half-maximal effect. A portion of the library. The share of hits here may be higher or lower than overall.
SMILES,VDR inhibitor
O=C(NCc1ccccc1)c1ccc2c(c1)S(=O)(=O)c1cc(Cl)ccc1C2=O,0%
O=[N+]([O-])c1ccccc1S(=O)(=O)N1CCN(Cc2ccc3c(c2)OCO3)CC1,7%
CCOc1ccc(N2C(=O)S/C(=C\c3cccn3C)C2=O)cc1,5%
CCN1CCN(C(=S)Nc2ccc3nc(N4CCN(C)CC4)cc(C)c3c2)CC1,-27%
COc1ccccc1CNC(=O)C1CCC(CNc2c(N3CCC(C)CC3)c(=O)c2=O)CC1 (configuration not stated),3%
CCOC(CNC(=O)c1ccc(N2CCc3ccccc32)c([N+](=O)[O-])c1)OCC,-16%
COc1ccc(NC(=O)c2ccc(-c3ccc(-c4noc(C)n4)cc3C)cc2)cc1N1CCN(C)CC1,11%&-5%
CC1CCCN(c2ccc(C(=O)NCc3cccs3)cn2)C1 (configuration not stated),13%
CC1(C)CC(=O)C2=C(C1)OC(c1ccncc1)C(C#N)=C2N (configuration not stated),-11%
CC(C)Cn1cc(NC(=O)NCc2ccccc2)c2ccccc2c1=O,2%
O=S1(=O)CCC(NC(=S)SCc2ccccc2Br)C1 (configuration not stated),20%
C#CCOCCOCCOCCNc1nc(N2CCN(C(=O)[C@H]([C@@H](C)CC)n3cc([C@@H](N)CC(C)C)nn3)CC2)nc(N2CCN(C(=O)[C@H](CCCCN)n3cc([C@@H](N)CC(C)C)nn3)CC2)n1,2%
CC(Cc1cccs1)NC(=O)Nc1ccc([N+](=O)[O-])cc1 (configuration not stated),-3%
Cc1cc(Cl)ccc1NC(=S)NCCc1ccc(Cl)cc1,31%[activator]
O=C(CSc1nccn1Cc1ccccc1)Nc1nc2ccccc2s1,5%
CCc1ccccc1NC(=O)CN1CCN(C(=O)CNC(=O)c2ccc(-c3ccccc3)cc2)CC1,2%
CC(=O)Nc1ccc(S(=O)(=O)N(Cc2cccnc2)Cc2cc3ccc(C)cc3[nH]c2=O)cc1,14%
COCCN(C(=O)c1cc2c(s1)CCC2)c1c(N)n(CC(C)C)c(=O)[nH]c1=O,7%
Cc1cc(=O)oc2cc(OCC(=O)NCC3CCCO3)ccc12 (configuration not stated),4%
CCc1nnc(NC(=O)COc2ccc3ccccc3c2)s1,-10%
CN1C[C@@H]2[C@@H]3C(=O)N(C)C(=O)[C@@H]3[C@](Cc3ccccc3)(C1=O)N2C(=O)c1ccccc1,15%
O=C(COC(=O)c1ccc(O)cc1)Nc1ccccc1,0%
O=C(CN1C(=O)CCSc2ccc(S(=O)(=O)N3CCCC3)cc21)Nc1ccccc1,-10%&12%
COc1cc(C(=O)N2CCc3c([nH]c4ccccc34)C2c2ccccc2)cc(OC)c1OC (configuration not stated),6%
CN1CCCCCC1=Nc1ccc([N+](=O)[O-])cc1,3%
CC(Sc1nnc(-c2cccnc2)n1N)C(=O)N1CCOCC1 (configuration not stated),-16%
CCCN(CCC)CCCNC(=O)c1ccc(CS(=O)(=O)c2c(Cl)cccc2Cl)o1,1%
O=C1NCC(Nc2ccccc2Cl)C(=O)N1 (configuration not stated),7%
CC(=O)c1ccc(NC(=O)c2cc3sccc3n2Cc2ccc(F)cc2)cc1,-9%
O=C(N/N=C\C=C\c1ccco1)c1cc(-c2ccc3ccccc3c2)n[nH]1,-6%
Cc1ccc(C(=O)O/N=C/c2c(C)nn(C)c2Cl)cc1,4%
COc1ccc(/C=C2/SC(=O)NC2=O)cc1,21%
O=S1(=O)CCOC[C@H](c2ccccc2)N1Cc1ccccc1,-2%
O=C(Cn1nc(N2CCN(c3ccccc3)CC2)ccc1=O)Nc1ccc(F)cc1F,21%
CC(=O)Nc1ccc2c(c1)CCC2=O,-12%
Cc1cc(S(=O)(=O)N2CCCCCC2)c(Cl)cc1Cl,29%
CCSCCOC(=O)C1=C(C)N(C)C(=O)NC1c1ccc2c(c1)OCO2 (configuration not stated),-4%
CN1CCN(S(=O)(=O)c2ccc(NC(=O)c3cccc(S(=O)(=O)N4CCCC4)c3)cc2)CC1,6%
CCC(C)NCCOc1ccc(C)cc1[N+](=O)[O-] (configuration not stated),12%
COc1ccc(N(CC(=O)N2CCCCCC2)S(=O)(=O)c2c(C)[nH]c(=O)[nH]c2=O)cc1,7%
COC(CNC(=O)c1cccc2c1C(=O)N(Cc1cccnc1)C2)OC,-7%
O=C(O)c1cc(-c2cccnc2)nc2ccccc12,4%
O=C1CC(Cc2ccccc2)C(=O)N1c1ncccn1 (configuration not stated),14%
CC(C)(C)C(=O)Cn1ncc(Cl)c(Cl)c1=O,9%
CC(=O)c1cc(-c2ccccc2)n(CCC(=O)Nc2ccc(C(C)C)cc2)c1C,7%
Cc1ccccc1NC(=O)CCCNC(=O)c1ccc(Cl)cc1,-3%
CCCN1CNc2c(c(=O)[nH]c(=S)n2CCC(C)C)C1,-9%
Cc1ccc2[nH]c3nc(NN)nnc3c2c1,-5%
CCOc1ccc(CCNC(=O)COn2nnc3ccc(S(=O)(=O)N4CCOCC4)cc32)cc1OCC,-3%
CS(=O)(=O)N1CCN(c2cccc(Cl)n2)CC1,-2%
Cc1cccc(NC(=O)C[n+]2ccc(N(C)C)cc2)c1,-18%
O=C(c1ccc([N+](=O)[O-])cc1)N1CCN(Cc2ccccc2[N+](=O)[O-])CC1,-1%
CCCCS(=O)(=O)N1CCCC(C(=O)NCC2CCCO2)C1 (configuration not stated),-4%
COCCNC(=S)N/N=C/c1ccc(N2CCOCC2)cc1,0%
Cc1ccc(S(=O)(=O)CC(=O)Nc2sc3c(c2C#N)CCCCC3)cc1,9%
Cc1ccc(-n2c(=O)c3c(c4cc(C)ccc4n3C)n(CC(=O)N3CCCC3)c2=O)cc1,3%
CCC(Sc1ccc2nnc(-c3ccc(F)cc3)n2n1)C(=O)O (configuration not stated),-7%
Cc1cc(=O)n(C(C)C(=O)NCc2ccccc2Cl)c2c1c(C)nn2-c1ccccc1 (configuration not stated),2%
O=C(CCn1c(=O)[nH]c2ccccc2c1=O)N1CC=C(c2ccccc2)CC1,u
Nn1c(SCC(=O)NCCC2=CCCCC2)nnc1C(F)(F)F,0%

# Continuation.
SMILES,VDR inhibitor
O=C(c1ccc(COc2c(F)c(F)cc(F)c2F)o1)N1CCN(c2ccc(Cl)cc2)CC1,15%
CC1CCN(S(=O)(=O)c2ccc3c(c2)C(=NO)c2cc(S(=O)(=O)N4CCC(C)CC4)ccc2-3)CC1,24%
CCOC(=O)c1oc2ccccc2c1NC(=O)c1ccc(S(=O)(=O)N2CCCC2)cc1,1%
CCCCn1c(NCc2cccs2)nc2ccccc21,-13%
CC1CCN(CCCCOc2ccccc2Br)CC1,-23%
Cc1cc(=O)n2nc(N3CCCC(C(=O)NCc4cccc(Cl)c4)C3)sc2n1 (configuration not stated),12%
CC(=O)c1ccc(OCCCC(=O)OCC(=O)Nc2ccc3[nH]c(=O)[nH]c3c2)cc1,0%
CCC1=C(OC(=O)N(CC)CC)N2C(=O)OC(=NCC(=O)OC)[C@]2(Cc2ccccc2)[C@H]2C1=CC[C@H]1C(=O)N(c3ccccc3)C(=O)[C@H]12,-12%
O=C(CCCCn1c(=O)[nH]c2ccsc2c1=O)NCc1cccnc1,21%
O=C(CN1CCCc2ccccc21)NC(=O)NC1CCCCC1,-28%
CSc1nc(NCCOCCO)c2sc3nc(-c4ccco4)c4c(c3c2n1)CCC4,2%
COc1ccc(CC(=O)NC(C)c2nnc(SCC(=O)Nc3nc(C)cs3)n2C)cc1 (configuration not stated),-17%
CC(=O)OCON[N+]([O-])=NC(C)C,-18%
CCOC(=O)c1sc2nc(C)nc(SCC(=O)NC(C)CCc3ccccc3)c2c1C (configuration not stated),-1%
O=C(NCCc1ccccn1)c1cc(-c2ccccc2Cl)nc2ccccc12,u
Cc1cc(NC(=O)c2ccccc2)ccc1NC(=O)Cc1ccccc1,9%
C=CCc1ccccc1OCc1nc2ccccc2n1CC,-1%
O=C(CN1C(=O)NC2(CCCCC2)C1=O)N1CCN(S(=O)(=O)/C=C/c2ccccc2)CC1,-1%
Cc1c(C(=O)N2CCN(C/C=C/c3ccccc3)CC2)oc2c(F)cccc12,2%
O=C(Cc1nnc(NC(=O)Nc2ccccc2F)s1)NCc1ccccc1,1%
Cc1cc(NC(=O)CN2CCCC(C)C2)n(-c2nc3ccccc3s2)n1 (configuration not stated),-20%
Cc1ccccc1NC(=O)c1ccc(NC(=O)C2CCCO2)cc1 (configuration not stated),14%
CCCCn1c(N)c(N(CCOC)C(=O)C(C)N2C(=O)c3ccccc3C2=O)c(=O)[nH]c1=O (configuration not stated),-15%
CCc1nc2oc3cc(OC)ccc3c(=O)c2c(=O)n1-c1ccccc1,-15%
Cc1ccc(NC(=O)N2CCCC2C(=O)NCc2cccs2)cc1 (configuration not stated),-10%
CCCCCCCC(=O)N/N=C(\C)c1ccc(O)cc1O,7%
CC1=Nn2c(nc3sc4c(c3c2=O)CCCC4)SC1,-20%
CC(C)N(Cc1nc(-c2ccc(Cl)cc2)no1)C(=O)CCC1CCCC1,-1%
COC(=O)c1ccc(-c2nc(-c3cccs3)no2)cc1,-5%
O=C(NCc1ccco1)c1sc(=S)n2c1[nH]c(=O)c1ccccc12,u
CCC1CCCCN1C(=O)COC(=O)c1cccs1 (configuration not stated),3%
O=C(CN1C(=O)C2(SCC(=O)N2c2ccccc2)c2ccccc21)NCc1ccccc1Cl (configuration not stated),9%
Cc1cccc(C(=O)c2cn[nH]c2-c2ccccc2O)c1,-20%
Cn1cccc1/C=N\NC(=O)Cc1ccc(Br)c2ccccc12,1%
O=C(Cn1c(=O)sc2ccccc21)NCc1ccccn1,-21%
c1ccc(C(c2ccccc2)c2noc(CN3CCN(C4CCCC4)CC3)n2)cc1,-21%
COc1ccccc1CNC(=O)C(=O)NCCC1CCCCN1S(=O)(=O)c1ccc(C)cc1 (configuration not stated),10%
COc1ccccc1NC(=O)C1CCC(CNS(=O)(=O)c2ccc3c(c2)CC(C)N3C(C)=O)CC1 (configuration not stated),-3%
O=C(c1cccc2ccccc12)N1CCCCC1,4%
CCc1noc(C)c1C(=O)Nc1cccc2ncccc12,8%
CCc1ccc(-n2nc(CO)c(C(=O)NC)n2)cc1,5%
CN1CC(C(=O)O)Cc2c1ccc1ccccc21 (configuration not stated),23%
CCn1c(=S)sc2c(=O)n(-c3ccccc3)c(SCC(=O)NCc3ccco3)nc21,1%
O=C1c2ccccc2C(=O)C1c1ccccn1,-5%
CCOC(=O)c1[nH]c2cc3c(cc2c1NC(=O)CN1CCN(CCO)CC1)OCO3,11%
CCOC(=O)c1cnn(-c2nc(-c3ccccc3)cs2)c1C(F)(F)F,14%
CCC(=O)Nc1cccc(C(=O)Nc2nccs2)c1,1%
O=C(COc1ccc(Br)cc1Br)NN1C(=O)c2ccccc2C1=O,-7%
O=[N+]([O-])C(=C1Nc2ccccc2N1)/C(Cl)=C(/Cl)Br,-27%
CCCN(CCC)CCCNC(=O)Cn1cnc2sc(C)c(S(=O)(=O)N3CCCCC3)c2c1=O,-7%&-5%
CCc1ccc(-c2nn(CC(=O)Nc3ccccc3C)c3c2cnc2ccc(C)cc23)cc1,-4%
CCC1([N+](=O)[O-])COC(c2ccc(OC)cc2)OC1 (configuration not stated),2%
COc1ccc(C)cc1NC(=O)c1ccc([N+](=O)[O-])cc1[N+](=O)[O-],-19%
Nc1ncc(Br)cc1S(=O)(=O)NCCc1ccccc1,9%
CN1CCN(c2nc3c(c(=O)n(C)c(=O)n3C)n2CCSc2nnnn2-c2ccccc2)CC1,-15%
CNC(=S)N1CCC(c2nc3ccccc3s2)CC1,-9%
CC1(C)CC(=O)C(C(c2cc([N+](=O)[O-])ccc2Cl)C2C(=O)CC(C)(C)CC2=O)C(=O)C1,-14%
CCCCCCn1c(COc2ccccc2F)nnc1SCC(=O)NC1CCS(=O)(=O)C1 (configuration not stated),10%
CCOc1ccc2nc(N(CCCN(C)C)C(=O)c3ccc(S(=O)(=O)N4CCc5ccccc5C4)cc3)sc2c1,-24%
Cc1ccc(CN2CCNC(=O)C2CC(=O)N2CCN(c3ncccn3)CC2)o1 (configuration not stated),-14%
CCOC(=O)c1c(C)c(-c2ccccc2)n(CC(=O)NCCc2ccc(C)cc2)c1C,-14%
COc1ccc(C(CC(=O)Nc2ncccc2C)N2Cc3ccccc3C2=O)cc1 (configuration not stated),-6%

# A run of entries taken from the entries so far, as a working copy:
SMILES,VDR inhibitor
CCOC(=O)c1cnn(-c2nc(-c3ccccc3)cs2)c1C(F)(F)F,14%
CCC(=O)Nc1cccc(C(=O)Nc2nccs2)c1,1%
O=C(COc1ccc(Br)cc1Br)NN1C(=O)c2ccccc2C1=O,-7%
O=[N+]([O-])C(=C1Nc2ccccc2N1)/C(Cl)=C(/Cl)Br,-27%
CCCN(CCC)CCCNC(=O)Cn1cnc2sc(C)c(S(=O)(=O)N3CCCCC3)c2c1=O,-7%&-5%
CCc1ccc(-c2nn(CC(=O)Nc3ccccc3C)c3c2cnc2ccc(C)cc23)cc1,-4%
CCC1([N+](=O)[O-])COC(c2ccc(OC)cc2)OC1 (configuration not stated),2%
COc1ccc(C)cc1NC(=O)c1ccc([N+](=O)[O-])cc1[N+](=O)[O-],-19%
Nc1ncc(Br)cc1S(=O)(=O)NCCc1ccccc1,9%
CN1CCN(c2nc3c(c(=O)n(C)c(=O)n3C)n2CCSc2nnnn2-c2ccccc2)CC1,-15%
CNC(=S)N1CCC(c2nc3ccccc3s2)CC1,-9%
CC1(C)CC(=O)C(C(c2cc([N+](=O)[O-])ccc2Cl)C2C(=O)CC(C)(C)CC2=O)C(=O)C1,-14%
CCCCCCn1c(COc2ccccc2F)nnc1SCC(=O)NC1CCS(=O)(=O)C1 (configuration not stated),10%
CCOc1ccc2nc(N(CCCN(C)C)C(=O)c3ccc(S(=O)(=O)N4CCc5ccccc5C4)cc3)sc2c1,-24%
Cc1ccc(CN2CCNC(=O)C2CC(=O)N2CCN(c3ncccn3)CC2)o1 (configuration not stated),-14%
CCOC(=O)c1c(C)c(-c2ccccc2)n(CC(=O)NCCc2ccc(C)cc2)c1C,-14%
COc1ccc(C(CC(=O)Nc2ncccc2C)N2Cc3ccccc3C2=O)cc1 (configuration not stated),-6%
